Polio RdRp inh: poliovirus RdRp elongation inhibitors, primary screen, biochemical, fluorescence polarization, total intensity. Genome polyprotein (Poliovirus type 1 (strain Mahoney)), P03300. AID 588519, 2011. % elongation, % (compound at 16.7 µg/mL). poliovirus polymerase elongation; active compounds read low. actives 0.66% (n = 150,000); in the data active = % elongation below about 90%; also: some results filed as inactive read as strong as hits
Target sequence (P03300 1749-2209 limits assumed): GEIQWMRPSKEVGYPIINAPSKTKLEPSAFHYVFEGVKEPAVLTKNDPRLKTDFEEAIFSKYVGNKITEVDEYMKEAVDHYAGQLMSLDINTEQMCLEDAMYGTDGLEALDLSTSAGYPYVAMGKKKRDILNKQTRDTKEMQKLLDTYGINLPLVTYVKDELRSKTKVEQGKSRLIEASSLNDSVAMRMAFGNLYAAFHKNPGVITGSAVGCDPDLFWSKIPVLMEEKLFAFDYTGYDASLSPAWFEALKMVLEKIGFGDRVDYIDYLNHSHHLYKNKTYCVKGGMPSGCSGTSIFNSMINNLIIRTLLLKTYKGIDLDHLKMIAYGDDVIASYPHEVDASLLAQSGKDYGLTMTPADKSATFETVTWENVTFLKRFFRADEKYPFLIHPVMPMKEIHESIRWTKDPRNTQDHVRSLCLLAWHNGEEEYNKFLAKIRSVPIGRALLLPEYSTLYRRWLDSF
Polio RdRp inh intensity: second read-out of Polio RdRp inh, no call of its own (marks repeat the call); % elongation; measured here: total intensity read-out; formula for this scale not given here;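 total fluorescence in place of polarization; lower means less elongation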
Starred values were filed as active, the others as inactive. These rows are one share of the data; count on the stated rates, not on these rows.

SMILES	Polio RdRp inh	Polio RdRp inh intensity
Cc1ccc(-c2cn3c(n2)sc2cc(C(=O)NC4CCCCC4)ccc23)cc1	106	103
CC(C)(C)OC(=O)N1CCC(c2c(C(=O)N3CCN(c4ncccn4)CC3)cnn2-c2cccc(F)c2)CC1	115	110
O=C(COc1ccccc1F)Nc1ccc2oc(-c3cccc(Cl)c3)nc2c1	112	101
Cc1ccccc1CNC(=O)CCS(=O)(=O)c1cc2c3c(c1)CCN3C(=O)CC2	109	102
CCCCN(C)C(=O)Cn1cnc2sc(C)c(S(=O)(=O)N3CCN(c4ccccc4OC)CC3)c2c1=O	107	110
CCN(C(=O)CSc1nc2ncccc2[nH]1)c1ccc(C(C)C)cc1	108	114
CCC(C)NC(=O)c1c(-c2ccccc2)c(-c2ccccc2)nn(C)c1=O (stereo not given)	108	110
O=C(COc1ccccc1Cl)Nc1cc(-c2ccccc2F)nn1-c1ccccc1	110	108
CC1CCN(c2ncnc3c2nnn3C)CC1	113	116
CCOc1ccc(CCNC(=O)Cn2ncn3c(cc4ccccc43)c2=O)cc1OCC	111	114
COc1ccc(CNC(=O)C2CCN(C(=O)N3CC(C)Oc4ccc(C)cc43)CC2)cc1 (stereo not given)	98	94
CC1=C(C(=O)Nc2ccccc2)C(c2ccccc2)n2nc(-c3ccco3)nc2N1 (stereo not given)	107	112
CCc1nonc1NC(=O)c1oc2cc(C)c(C)cc2c1C	109	94
COc1ccc(S(=O)(=O)NCc2cccn2Cc2cccc(C)c2)cc1Cl	107	98
C#CCN1C(=O)C(O)(CC(=O)c2ccc(OC)c(OC)c2)c2cc(Br)ccc21 (stereo not given)	108	109
CCN(CC)C(=O)Cn1c(=O)n(Cc2ccc(C(=O)NCCCOC)cc2)c(=O)c2ccccc21	104	105
CC1=C(C(=O)Nc2cc(C)cc(C)c2)C2(CCCCC2)OC1=O	102	106
CCOC(=O)c1ccc2ncc3c(-c4ccccc4)nn(-c4ccc(F)c(Cl)c4)c3c2c1	104	107
CCN1CCOC(=O)C1CC(=O)Nc1ccccc1C(F)(F)F (stereo not given)	107	106
COc1cc(C2CC(=O)Nc3cc4c(cc32)OCCO4)cc(Br)c1OC (stereo not given)	109	107

Part of the list above in order of number of heavy atoms, highest first:
SMILES	Polio RdRp inh	Polio RdRp inh intensity
CC(C)(C)OC(=O)N1CCC(c2c(C(=O)N3CCN(c4ncccn4)CC3)cnn2-c2cccc(F)c2)CC1	115	110
CCCCN(C)C(=O)Cn1cnc2sc(C)c(S(=O)(=O)N3CCN(c4ccccc4OC)CC3)c2c1=O	107	110
CCN(CC)C(=O)Cn1c(=O)n(Cc2ccc(C(=O)NCCCOC)cc2)c(=O)c2ccccc21	104	105
CCOC(=O)c1ccc2ncc3c(-c4ccccc4)nn(-c4ccc(F)c(Cl)c4)c3c2c1	104	107
CC1=C(C(=O)Nc2ccccc2)C(c2ccccc2)n2nc(-c3ccco3)nc2N1 (stereo not given)	107	112
Cc1ccccc1CNC(=O)CCS(=O)(=O)c1cc2c3c(c1)CCN3C(=O)CC2	109	102
C#CCN1C(=O)C(O)(CC(=O)c2ccc(OC)c(OC)c2)c2cc(Br)ccc21 (stereo not given)	108	109
CCC(C)NC(=O)c1c(-c2ccccc2)c(-c2ccccc2)nn(C)c1=O (stereo not given)	108	110
COc1cc(C2CC(=O)Nc3cc4c(cc32)OCCO4)cc(Br)c1OC (stereo not given)	109	107
CCN(C(=O)CSc1nc2ncccc2[nH]1)c1ccc(C(C)C)cc1	108	114
CC1=C(C(=O)Nc2cc(C)cc(C)c2)C2(CCCCC2)OC1=O	102	106
CCc1nonc1NC(=O)c1oc2cc(C)c(C)cc2c1C	109	94
CC1CCN(c2ncnc3c2nnn3C)CC1	113	116

The results go on.
SMILES	Polio RdRp inh	Polio RdRp inh intensity
Oc1cccc(CC(F)(F)F)c1	100	97
CCOC(=O)N1CCN(C(=O)CN(c2cccc(Cl)c2C)S(=O)(=O)c2ccc(C)cc2)CC1	104	97
Cc1ccc(NC(=O)C2CCN(c3nc4ccccc4[nH]3)CC2)cc1Cl	105	102
Cc1cccc(NC(=O)CN2C(=O)C(c3ccc(F)cc3)=NC23CCCCCC3)c1C	105	103
CCCN1CCN(CCCNC(=O)c2cnn(-c3ccc(C)cc3)c2-n2cccc2)CC1	109	100
CCN(CC)CCCNC(=O)c1ccc2c(c1)N(Cc1c(F)cccc1Cl)C(=O)c1ccccc1S2	105	104
COCCNc1ccc(-c2nc(-c3ccccn3)no2)cc1[N+](=O)[O-]	108	109
O=C(CSc1nc2c([nH]c3ccccc32)c(=O)n1-c1ccccc1)c1ccc(Cl)cc1	103	104
Cc1cc(C)c(Cn2c3ccccc3c3cnn(CC(=O)N4CCCCCC4)c(=O)c32)c(C)c1	104	102
O=C(NCCc1ccc(Cl)cc1)c1cc(-c2ccccc2)n[nH]1	112	115
Clc1ccc(CCNC(c2cccc(Cl)c2)c2nnc(-c3ccccc3)o2)cc1 (stereo not given)	102	105
CCCN(CCC)CC(O)Cn1cc(/C=C/C(=O)c2ccc(OCC)cc2)c2ccccc21 (stereo not given)	108	110
CCOc1ccc(NC(=O)NCCN2CCN(c3cc(Cl)ccc3C)CC2)cc1	110	110
Cc1cc(NC(=O)C2CCCN(S(=O)(=O)c3cn(C)cn3)C2)ccc1Br (stereo not given)	108	114
CCN(C(=O)COc1cc(=O)n(C)c2ccccc12)c1cccc(C(F)(F)F)c1	107	112
CCc1ccc(CNC(=O)C2COc3ccccc3C2)cc1 (stereo not given)	107	110
Cc1ccc(CCNC(=O)c2ccc(Nc3nc4ccccc4n4nnnc34)cc2)cc1	105	109
Cc1ccc(-c2nc(CS(=O)(=O)CC(=O)Nc3cc(C)ccc3C)c(C)o2)cc1	105	109
CC1CCN(S(=O)(=O)c2ccc3nc(NCc4ccc(N(C)C)cc4)ccc3c2)CC1	102	106
Cc1ccc(N2CCN(C(=O)C3CCN(S(=O)(=O)c4ccc5c(c4)oc(=O)n5C)CC3)CC2C)cc1 (stereo not given)	108	104
Cc1ccc(C(=O)Oc2c(S(=O)(=O)c3ccccc3)c(C)nn2-c2ccccc2)cc1	110	109
CC1CN(C(=O)N2CCC(C(=O)NCCCc3ccccc3)CC2)c2ccccc2O1 (stereo not given)	109	115
COc1ccc(C(=O)Nc2ccc3nc(N4CCCCC4)cc(C)c3c2)c(OC)c1	99	106
CCCSc1nnc2n(-c3ccc(OC)cc3)c(=O)c3c4c(sc3n12)COC(C(C)C)C4 (stereo not given)	106	109
COC(=O)c1ccc(NS(=O)(=O)c2ccc3c(c2)n(C)c(=O)c(=O)n3C)cc1	101	104
O=C(COCc1cc(-c2ccc(F)cc2)on1)Nc1cc(Cl)ccc1O	109	109
CCn1c(CN2CCCCC2)nc2cc(NC(=O)c3ccccc3[N+](=O)[O-])ccc21	105	104
CCOC(=O)c1c(C)[nH]c(C)c1S(=O)(=O)N(C)CC(=O)N1CCN(c2ccccc2)CC1	102	108
Cc1cc(OCC(=O)N(Cc2sccc2C)C2CCS(=O)(=O)C2)ccc1Cl (stereo not given)	120	118
CCOc1ccc(-c2cc(C(=O)NCc3ccc(OC)cc3)c3c(-c4ccc(F)cc4)[nH]nc3n2)cc1	106	104
COc1ccc(N2C(=O)CSC23C(=O)N(CC(=O)NCc2ccccc2)c2ccccc23)cc1 (stereo not given)	112	111
COc1cc(/C=C(\C#N)c2nc3ccccc3[nH]2)ccc1OCc1cccc(C(F)(F)F)c1	99	106
COc1ccc(Nc2c3c(nc4ccc(NC(=O)c5ccc(F)cc5)cc24)CCCC3)cc1OC	101	103
CCCN1CCN(CCCNC(=O)c2cc3c(=O)[nH]c4ccccc4c3s2)CC1	95	95
CCOc1ccc(CNC(=O)c2cc3cc(S(=O)(=O)N4CCCCC4)ccc3n2C)cc1	116	116
CC(C)(C)C1CCc2c(sc(NC(=O)C3c4ccccc4Oc4ccccc43)c2C(N)=O)C1 (stereo not given)	105	105
CC1CCN(c2nc(-c3ccc(C(C)(C)C)cc3)nc3ccccc23)CC1	107	107
Cc1nc(-c2cccnc2)sc1CCNS(=O)(=O)c1ccc(F)cc1	114	118
COc1ccc(CNC(=O)CCS(=O)(=O)c2cc3c4c(c2)CCN4C(=O)CC3)cc1	103	101
CCCCOc1cccc(C(=O)N(Cc2cccs2)c2ccc(OC)cc2)c1	104	98
Cc1cccc(-c2nc(Cn3c(SCc4cc(C)ccc4C)nc4ccncc43)c(C)o2)c1	109	111
COc1ccc2c(c1)-c1nc(NC(=O)c3cc(Cl)ccc3OC)sc1CC2	104	104
CCOC(=O)c1ccc(CN(Cc2ccc(C)cc2)S(=O)(=O)c2ccc(F)c(C(=O)Nc3ccc(C)c(F)c3)c2)cc1	110	112
O=C(Cn1c(=O)c(CNc2ccccc2)cc2cc3c(cc21)OCCO3)Nc1ccccc1Cl	51*	57*
Cc1cc(C)cc(NC(=O)Cn2cc(C(=O)C3CCCCC3)c3ccccc32)c1	108	111
CCOC(=O)N1CCC(NC(=O)c2ccc3c(c2)N(Cc2ccccc2)C(=O)c2ccccc2S3=O)CC1 (stereo not given)	100	99
CC(C)C(=O)Nc1ccc2nc(SCCOc3ccccc3)sc2c1	105	112
COC(=O)c1cc2sc(C)cc2n1Cc1ccccc1	113	115
Cc1ccc(-n2c(=O)c3oc4ccccc4c3n(CC(=O)Nc3ccc(F)c(Cl)c3)c2=O)cc1C	107	99
COc1cc(NS(=O)(=O)c2c(C(=O)N3CCCCC3)c(C)n(C)c2C)cc(OC)c1OC	112	112
Cc1ccc(CNC(=O)CCCN2C(=O)c3cccnc3Oc3ccc(Cl)cc32)cc1	107	97
CC(C)Cn1c(=O)c2sccc2n2c(CCCC(=O)NCc3ccccc3Cl)nnc12	120	119
NC(=O)CSc1ncc2c(n1)-c1ccccc1N(Cc1cccc(F)c1)S2(=O)=O	110	114
CCOC(=O)c1c(C)c(C(=O)NCc2ccc(OC)cc2)c(C)n1CC	106	105
COc1ccc(CNC(=O)CSCc2nc(-c3ccccc3F)oc2C)cc1	108	101
COC(=O)c1ccccc1NC(=O)Nc1cccc(OCc2cc(=O)n3cccc(C)c3n2)c1	109	93
Cc1ccc2nc3c(cc(C#N)c(=O)n3-c3nnc(SCc4ccc(F)cc4)s3)c(=O)n2c1	104	109
COc1ccc(-c2nc3ccc(NS(=O)(=O)c4ccccc4)cc3o2)cc1	101	105
CCOc1cccc(C2c3[nH]c4ccccc4c3CCN2C(=O)Cc2cccc(OCC)c2OCC)c1 (stereo not given)	108	112
CCCCOc1ccc(C(=O)N/C(=C\c2ccc(Br)cc2)C(=O)NC2CCCCC2)cc1	101	106

3 structures from above, arranged by SMILES length, rising:
SMILES	Polio RdRp inh	Polio RdRp inh intensity
O=C(NCCc1ccc(Cl)cc1)c1cc(-c2ccccc2)n[nH]1	112	115
Cc1ccc(-c2cn3c(n2)sc2cc(C(=O)NC4CCCCC4)ccc23)cc1	106	103
CC(C)(C)C1CCc2c(sc(NC(=O)C3c4ccccc4Oc4ccccc43)c2C(N)=O)C1 (stereo not given)	105	105

Next part
SMILES	Polio RdRp inh	Polio RdRp inh intensity
COc1ccccc1C1c2c(-c3ccc(Cl)cc3)n[nH]c2C(=O)N1c1ccc(C)cc1 (stereo not given)	113	113
CCCCCNC(=O)CCCCCn1c(=O)[nH]c2ccsc2c1=O	105	107
CCC(=O)Nc1ccc(Cl)c(-c2nc3ccccc3[nH]2)c1	102	105
Cc1oc(-c2cccc(Br)c2)nc1CN1CCC(C(=O)NCc2ccccc2)CC1	100	95
CN(Cc1ccccc1)C(=O)c1cn(C)c2ccc(S(=O)(=O)N3CCCCC3)cc2c1=O	97	100
CCn1c(CNC(=O)C23CC4CC(CC(C4)C2)C3)nnc1SCC(=O)Nc1ccc(F)cc1	102	103
Cc1ccc(NC(=O)C2CCCN2S(=O)(=O)c2ccc3nc(-c4ccccc4)[nH]c3c2)cc1C (stereo not given)	103	98
Cc1ccc2nc(N3CCN(c4ccccc4)CC3)c3nnnn3c2c1	107	104
CCOC(=O)c1cccc(NC(=O)CCc2c(C)nc3c4cccnc4nn3c2C)c1	105	109
COc1ccccc1NC(=O)Cn1c(=O)c(CNc2ccccc2)cc2cc(OC)c(OC)cc21	101	111
CCC(=O)Nc1nnc(SCc2cc(=O)c3cc(C)ccc3[nH]2)s1	99	111
Cc1ccc(NC(=O)Cn2c(CCC(=O)O)ccc2-c2cccs2)cc1Cl	107	104
CCCn1c2ccccc2c2cnn(CC(=O)N3CCCC(C)C3)c(=O)c21 (stereo not given)	108	109
COc1ccccc1N1CCN(C(=O)c2cc(CC(C)C)on2)CC1	106	110
CCCSc1ncc(Cl)c(C(=O)Nc2scc(-c3ccc(C)cc3)c2C(=O)OCC)n1	111	110
Cc1ccc(CSCCC(=O)NCc2ccc(F)cc2Cl)cc1	105	106
Cc1ccc(CCNC(=O)C2COc3ccccc3C2)cc1 (stereo not given)	98	103
CC(=O)Nc1ccc(NS(=O)(=O)c2c(C)nc3sccn3c2=O)cc1	111	112
CCOC(=O)N1CCC2(CC1)OC(=O)C(C)=C2C(=O)NCc1cccc(F)c1	112	113
CCOc1ccc(OCC)c(NS(=O)(=O)c2c(C)[nH]c(=O)[nH]c2=O)c1	100	104
CCc1ccccc1N(C)C(=O)C1CCCN(c2ncnc3c2nc2n3CCCCC2)C1 (stereo not given)	111	116
CC1=C(C(=O)OC2CCCC2)C(c2ccccc2Cl)CC(=O)N1 (stereo not given)	109	113
CCOc1ccc(C(=O)Nc2cc(-c3nc4cc(OC)ccc4o3)ccc2C)cc1[N+](=O)[O-]	105	105
Cc1cc(N2CCN(C)CC2)nc2ccc(NC(=O)Nc3ccc(Cl)cc3)cc12	107	111
Cc1cc2c(cc1S(=O)(=O)CCC(=O)N(C)Cc1ccccc1)OCC(=O)N2	103	111
COc1ccc(-c2nc3sc(CCNC(=O)c4cc(Cl)ccc4OC)c(C)n3n2)cc1	101	109
CCOC(=O)c1[nH]c2ccccc2c1NC(=O)c1ccc(Br)cc1	105	108
Cc1cccc(C(=O)Nc2ccc(C(=O)OCc3cc(=O)n4nc(C5CC5)sc4n3)cc2)c1	110	114
CCCCN1C(=O)c2[nH]nc(-c3ccccc3O)c2C1c1ccc(OCc2ccccc2)c(OC)c1 (stereo not given)	106	111
CC(C)c1ccc(-c2noc(SCC(=O)N3CCN(c4ccc(F)cc4)CC3)n2)cc1	101	107
